KCNQ2 enhance: enhances the rat KCNQ2 potassium channel. CHO-K1 KCNQ2, FluxOR thallium flux fluorescence; active compounds read high. B-score at 10 µM. hit rate 0.54% among 310,000. AID 2239;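 active = fluorescence ratio B-score at least 3 SD of library B-scores, with initial fluorescence B-score within 3 SD, cut at about 5.3 in these data; same plate scores as AID 2156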;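 also: B-score of peak minus minimum over baseline fluorescence ratio after K+ and Tl+ stimulus; positive B-score means potentiation of KCNQ2 with more thallium influx and brighter signal; only the inactives scoring about 0 or higher are listed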
Target sequence (O88943 whole entry, looked up): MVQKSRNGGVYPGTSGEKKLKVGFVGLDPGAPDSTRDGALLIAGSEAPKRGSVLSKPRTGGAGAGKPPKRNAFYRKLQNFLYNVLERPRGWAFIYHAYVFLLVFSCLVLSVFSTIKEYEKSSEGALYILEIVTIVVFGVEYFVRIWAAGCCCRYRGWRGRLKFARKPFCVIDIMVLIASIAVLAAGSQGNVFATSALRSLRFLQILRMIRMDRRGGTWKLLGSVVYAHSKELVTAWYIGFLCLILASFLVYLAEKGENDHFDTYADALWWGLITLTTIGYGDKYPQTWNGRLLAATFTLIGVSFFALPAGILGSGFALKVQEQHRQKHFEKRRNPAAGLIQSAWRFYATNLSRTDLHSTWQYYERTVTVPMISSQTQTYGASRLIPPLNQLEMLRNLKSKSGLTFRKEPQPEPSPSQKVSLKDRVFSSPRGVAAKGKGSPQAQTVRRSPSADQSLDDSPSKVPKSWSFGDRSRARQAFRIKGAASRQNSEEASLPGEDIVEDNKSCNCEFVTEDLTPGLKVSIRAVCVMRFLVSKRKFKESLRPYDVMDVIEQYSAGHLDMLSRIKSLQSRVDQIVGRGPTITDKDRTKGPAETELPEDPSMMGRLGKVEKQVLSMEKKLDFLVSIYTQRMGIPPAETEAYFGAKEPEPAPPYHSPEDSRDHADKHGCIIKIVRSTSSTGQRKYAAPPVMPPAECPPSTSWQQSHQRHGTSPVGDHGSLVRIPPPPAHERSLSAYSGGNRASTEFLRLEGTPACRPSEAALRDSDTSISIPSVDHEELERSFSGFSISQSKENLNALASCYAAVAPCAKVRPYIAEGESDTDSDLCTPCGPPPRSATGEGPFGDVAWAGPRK
KCNQ2 enhance baseline: recorded beside KCNQ2 enhance, whose call it bears; B-score; compound at 10 µM; measured here: initial fluorescence intensity artifact check;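 brightness before thallium and not channel activity; 0 = typical well and far values either way flag optical interference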
The depositor's hits bear a star.

SMILES	KCNQ2 enhance	KCNQ2 enhance baseline
COc1cccc(=O)c2c(C)n(-c3ccc(C(=O)O)cc3)c(C)c12	0.6	1
O=C(COc1cccc2cccnc12)N1CCc2ccccc2C1	0.02	-0.29
Cc1ccc(-c2csc(NNC(=O)c3ccccc3)n2)cc1	0.71	-0.24
c1ccc(COc2ccc(OCCCn3cncn3)cc2)cc1	0.26	2
CCc1nc(SCC(=O)Nc2cc(C)on2)c2c(=O)n(C)c(=O)n(C)c2n1	0.93	0.44
CN1CCC(OC(=O)c2ccccc2Cl)CC1	0.34	0.02
O=[N+]([O-])c1cc(C(F)(F)F)cc([N+](=O)[O-])c1NCc1cccnc1	0.38	0.11
COc1ccc(C)cc1NC(=O)NNC(=O)c1ccoc1C	0.02	0.27
CC(C)CCC(C)NC(=O)Cc1ccc(S(=O)(=O)N2CCOCC2)s1 (stereo unspecified)	0.66	0.04
CCC(=O)Nc1ccc(NC(=O)CSc2nnc(-c3ccco3)n2CC)cc1	0.52	0
CCOC(=O)C1CCN(c2c(NCc3ccc(C(=O)NC(C)CC)cc3)c(=O)c2=O)CC1 (stereo unspecified)	1.1	-0.31
C[n+]1ccccc1Nc1cc([N+](=O)[O-])ccc1N	0.68	-0.43
CCOCCOc1nc2c(c(=O)n(C)c(=O)n2C)n1Cc1ccc(C)cc1	0.47	0.06
O=C(Cn1ncc2c(=O)oc3ccccc3c21)N1CCc2ccccc2C1	1.5	0.5
CC1(/[N+]([O-])=C/c2ccc(F)cc2)CCCCC1=O (stereo unspecified)	1.5	-1.4
O=C(COc1ccc2c3c(c(=O)oc2c1)CCC3)NC(Cc1ccc(Cl)cc1)C(=O)O (stereo unspecified)	0.48	-0.3
O=C(CSc1nnc(NC(=O)c2c(F)cccc2F)s1)NCc1ccc(F)cc1	2.2	-0.05
CN(C)c1ccc(/C=N/NC(=O)c2cc(=O)[nH]c3ccccc23)cc1	0.1	1.3
C[C@H]1C=C(C(=O)NCc2nc3ccccc3[nH]2)O[C@@H](OCc2ccc(CO)cc2)C1	0.76	0.08
CN(C)c1ccc2nsnc2c1[N+](=O)[O-]	0.12	-0.3
O=C(CSc1nnc(-c2ccccc2Br)o1)N1CCOCC1	0.28	2.1
COc1ccc(C/C(C)=N/NC(=O)c2ccncc2)cc1	1.6	0.68
CCCCOC(=O)Nc1ccc(S(=O)(=O)Nc2nccs2)cc1	0.09	0.76
CC1=CN2C(=N)/C(=C/c3ccc(C)o3)C(=O)N=C2S1	1.8	-0.1
COc1ccc(NC(=O)Nc2nnc(C(C)C)s2)cc1	0.42	-1.2
Cc1ccc(NC(=O)C2C3C=CC4(O3)C2C(=O)N(CCN2CCOCC2)C4C(=O)NC2CCCCC2)cc1C (stereo unspecified)	1.1	1.1
CN1C(=O)c2ccccc2C(C(=O)NCc2ccco2)C1c1c[nH]c2ccccc12 (stereo unspecified)	0.56	-0.98
O=C(N1CCN(c2ccccn2)CC1)C(Cl)(Cl)Cl	0.06	2.2
Cc1ccccc1C(=O)NC(C(=O)Nc1nc2c(s1)CCCC2)C(C)C (stereo unspecified)	0.61	-0.78
Nc1c(Cl)ncnc1N/N=C/c1ccncc1	1.1	-0.24
COc1cccc(C2=NOC(C(=O)Nc3ccc4c(c3)OCO4)C2)c1OC (stereo unspecified)	0.13	0.43
COc1ccc(OC)c(NC(=O)CCNS(=O)(=O)c2cc(Br)cnc2N)c1	2	-0.04
COCCNC(=O)c1onc(CSc2ccncc2)c1C(=O)NCCOC	0.28	-0.43
Cc1ccc(OCCSc2nc(N)cc(N)n2)cc1	0.84	-0.25
COc1ccc(C)cc1NC(=O)C(=O)NNC(=O)c1ccco1	15*	1.5*
c1ccc(-c2cn(C[C@H]3CC[C@H](Cn4cc(-c5ccccn5)nn4)O3)nn2)nc1	1.4	0.26
CCOC(=O)C1CCN(c2cc3c(cc2NC(=O)c2ccccc2Br)n(C)c(=O)n3C)CC1	0.95	0.88
CCC1CCCCN1S(=O)(=O)c1ccc(C(=O)N(CCCN(C)C)c2nc3cc4c(cc3s2)OCO4)cc1 (stereo unspecified)	0.04	0.17
N#CC1(NC(=O)CN2CCN(S(=O)(=O)c3ccccc3F)CC2)CCCC1	0.23	-0.28
Cc1ccc(CNC(=O)C2(S(=O)(=O)c3ccccc3)CC=CC2)cc1	2.1	0.37
Cc1cccc(N2CCN(C(=O)CCS(=O)(=O)c3ccc(Br)cc3)CC2C)c1 (stereo unspecified)	0.07	-1.3
CCn1c(SCC(=O)Nc2c(C#N)cnn2-c2ccccc2)nnc1-c1cccs1	0.09	-0.36
CNC(=O)NC(=O)COc1c(F)c(F)cc(F)c1F	1.1	0.22
O=c1c(-c2nn[nH]n2)coc2ccc(Cl)cc12	0.21	0.01
O=C(CN1CCN(C(=O)C2CCCO2)CC1)Nc1ccc(Br)cc1 (stereo unspecified)	0.06	0.97
COc1cc(C(=O)Nc2ccc(NC(=O)c3ccccc3Cl)nc2)cc(OC)c1OC	0.27	-1.5
Cc1ccc(C(=O)N2CCN(c3ccc(NC(=O)c4cccnc4Cl)cc3)CC2)cc1	0.78	0.08
CCOc1ccc2cc(C(=O)c3ccccc3)c(=O)oc2c1	0.37	-0.47
CC(C)c1ccc(NC(=O)CNCC(c2ccccc2)N(C)C)cc1 (stereo unspecified)	1.4	-1.2
Cc1nc(N2CCN(C(=O)c3ccco3)CC2)nc2c1C(=O)CCC2	1.9	-0.71
CC(=O)N=c1scc(-c2ccccc2)n1-c1cccc(O)c1	0.12	-1
N#Cc1ccc(-c2ccccc2)nc1Sc1ccc(F)cc1	0.23	0.16
COc1ccc(Cc2c(C)nc(N)nc2Cl)cc1	1.2	-0.05
CCN(CCCNC(=O)C1CCC(=O)N1C(C)C)c1cccc(C)c1 (stereo unspecified)	1.6	0.2
O=C(O)CN1C(=O)/C(=C\c2cc(Br)ccc2OCc2ccc(F)cc2)SC1=S	2.2	-1.4
CCC(=O)Nc1cccc(NC(=O)COc2ccc(OC)cc2)c1	0.43	-0.16
CCC(NS(=O)(=O)c1cnn(CC)c1)c1ccccc1 (stereo unspecified)	0.19	-0.6
CCOC(=O)c1c(NC(=O)CSc2ccccc2C(=O)O)sc(C)c1C	0.95	0.82
NC(=O)[C@@H]1CCCNc2c(I)cc([N+](=O)[O-])cc2C(=O)N[C@@H](CO)C(=O)N[C@@H](Cc2ccc(O)cc2)C(=O)N1	1.9	0.03
CCCCCC(C)NC(=O)c1ccoc1C (stereo unspecified)	0.53	-0.56

Pulled by compound from the list above, six records:
SMILES	KCNQ2 enhance	KCNQ2 enhance baseline
Cc1nc(N2CCN(C(=O)c3ccco3)CC2)nc2c1C(=O)CCC2	1.9	-0.71
CN(C)c1ccc2nsnc2c1[N+](=O)[O-]	0.12	-0.3
CCC(NS(=O)(=O)c1cnn(CC)c1)c1ccccc1 (stereo unspecified)	0.19	-0.6
COc1ccc(C)cc1NC(=O)C(=O)NNC(=O)c1ccco1	15*	1.5*
Cc1cccc(N2CCN(C(=O)CCS(=O)(=O)c3ccc(Br)cc3)CC2C)c1 (stereo unspecified)	0.07	-1.3
O=C(N1CCN(c2ccccn2)CC1)C(Cl)(Cl)Cl	0.06	2.2

(cont.)
SMILES	KCNQ2 enhance	KCNQ2 enhance baseline
COc1ccc(Cc2nc3ccc(C(=O)NCCn4cccn4)cc3o2)cc1	0.74	1.4
O=C1NC(=O)C2C3c4ccccc4C(c4ccccc43)C12 (stereo unspecified)	0.92	1.2
CCC(C(=O)N1CCc2ccccc2C1)n1nc(C)n2c(cc3occc32)c1=O (stereo unspecified)	0.01	-0.47
O=C(COC(=O)CCCSc1nc2ccccc2[nH]1)NC(=O)NC1CCCC1	0.76	-2
COc1ccc(Cl)cc1NS(=O)(=O)c1c(C)[nH]c(C)c1C(=O)N1CCCCC1	0.13	-1.9
CCc1nn(C(C)C(=O)NCCc2ccccc2)c(=O)c2cc3occc3n12 (stereo unspecified)	2.2	1.6
CCC1=C(c2cc(OC)c(OC)c(OC)c2)C2(CCCC2)C(=O)O1	0.02	0.47
CCNC(=O)O/N=C1\CCCCC1c1ccc([N+](=O)[O-])cc1[N+](=O)[O-] (stereo unspecified)	1.1	3.1
CCCCc1[nH]c(=O)c(C#N)c2c1CCCC2	1.1	0
Cc1cccc(Nc2nnc(SC/C(O)=C(\C#N)c3nc4ccccc4[nH]3)s2)c1C	1.4	-1.3
COc1ccccc1-c1cc(-c2cc(Cl)ccc2O)n[nH]1	0.36	-0.01
CCCN1C2CCCC1CC(NC(=O)c1ccccc1OC)C2 (stereo unspecified)	1.1	-1.1
Cc1cc(C)n(C(=O)CNC(=O)Cc2ccccc2)n1	3.1	-1.2
CCc1nnc(NS(=O)(=O)c2ccc(NC(=S)NC(=O)/C=C/c3ccccc3)cc2)s1	1.3	0.33
CC(C)C[C@@H](CO)N1CCN(CCCc2ccccc2)CCC1=O	0.34	0.69
CC(=O)n1nc(-c2ccc(Cl)cc2)nc1NCc1ccco1	0.08	0.01
COc1cccc(CNC(=O)c2n[nH]c3ccccc23)c1	0.12	2.9
COc1ccc(-n2cnc3cc(C(=O)NC4CCCC4)ccc32)cc1	3.5	1.1
Cc1ccc(C2/C(=C(/O)c3ccc(Cl)cc3)C(=O)C(=O)N2CC2CCCO2)o1 (stereo unspecified)	3	-0.2
CCOC(=O)c1sc(C)c(C(N)=O)c1NC1=NCCCCC1	0.77	1.3
O=C(N/N=C\c1ccc(O)c([N+](=O)[O-])c1)C1COc2ccccc2O1 (stereo unspecified)	0.79	-2.4
COc1cccc(CN(Cc2ccccc2F)S(=O)(=O)c2ccc(S(=O)(=O)NCc3ccccc3)cc2)c1	1.8	2.2
O=C(NCCN1CCOCC1)c1ccc2c(c1)ncn2C1CCCCC1	0.7	-3
CCOC(=O)N1CCN(C(=O)COc2ccc(Cl)cc2)CC1	1.6	-0.45

A run of entries from the list above, as a working copy:
SMILES	KCNQ2 enhance	KCNQ2 enhance baseline
Cc1cc(C)n(C(=O)CNC(=O)Cc2ccccc2)n1	3.1	-1.2
CCc1nnc(NS(=O)(=O)c2ccc(NC(=S)NC(=O)/C=C/c3ccccc3)cc2)s1	1.3	0.33
CC(C)C[C@@H](CO)N1CCN(CCCc2ccccc2)CCC1=O	0.34	0.69
CC(=O)n1nc(-c2ccc(Cl)cc2)nc1NCc1ccco1	0.08	0.01
COc1cccc(CNC(=O)c2n[nH]c3ccccc23)c1	0.12	2.9
COc1ccc(-n2cnc3cc(C(=O)NC4CCCC4)ccc32)cc1	3.5	1.1

Other results follow.
SMILES	KCNQ2 enhance	KCNQ2 enhance baseline
COC(=O)Nc1ccc(OCC(=O)N2CCOCC2)cc1	1.8	0.05
CC1(C)CC(=NNC(=O)c2n[nH]c3c2CCC3)CC(C)(C)N1	0.88	0.09
COc1ccc(CC(=O)NC(=S)Nc2ccc(S(=O)(=O)NC(C)(C)C)cc2)cc1	0.38	-1.2
Cc1c(C(=O)NCC(C)C)sc2nc(-c3ccc(F)cc3)cn12	1.6	0.2
CC(C)(C)NC(=O)NC(=O)COC(=O)C1CC(=O)N(Cc2ccccc2)C1 (stereo unspecified)	1.3	0.47
Cc1ccc(CNS(=O)(=O)c2ccc(CN3C(=O)c4cccnc4C3=O)cc2)o1	0.45	-0.01
COc1cc(/C=C2/SC(=S)N(Cc3ccccc3)C2=O)ccc1O	0.83	-0.11
COc1ccc(-c2coc3cc4oc(=O)c(CC(=O)O)c(C)c4cc23)cc1	0.83	1.4
Cc1ccc(S(=O)(=O)Nc2ccc(S(=O)(=O)NCC3CCCO3)cc2)cc1 (stereo unspecified)	1.5	-0.03
O=S1(=O)CCN(Cc2ccc(Cl)c(Cl)c2)CC1	0.43	0.02
CCOC(=O)N1CCN(C(=O)c2ccc(OCC)c(OCC)c2)CC1	0.15	-2.8
Nc1ccc(C(=O)N/N=C/c2cccc(Oc3ccccc3)c2)cc1	1.8	-0.61
COc1ccc(CN2CC[C@@H](N3CCOCC3)[C@H](O)C2)cc1F	0.96	-0.13
CCOC(=O)C(/C=C(\C#N)C(=O)OCC)=C(/N)N1CCN(c2ccc(Cl)cc2)CC1	1.4	2.4
OCCNc1nc(-c2ccccc2)c2cc(Br)ccc2n1	0.31	1.9
COc1ccc(NC(=O)CN(C)C(=O)c2ccc(COc3ccccc3)o2)cc1	2	-1.3
CC1CCCN(C(=O)CCCn2c(=S)[nH]c3ccccc3c2=O)C1 (stereo unspecified)	0.36	-2
COc1cc(C(=O)ON=C2C=C(C)C(=O)C(C)=C2)cc(OC)c1OC	0.7	0.99
COc1ccc(NC(=S)NCc2cccs2)cc1	0.03	0.07
Cc1cccc2nc(-c3cccnc3)c(Nc3ccccc3)n12	1.6	0.34
Cc1noc(C)c1CN1C(=O)c2cccc([N+](=O)[O-])c2C1=O	2.5	0.23
Cc1cccc(C(=O)Nc2cccc(C(=O)Nc3cc(C)ccn3)c2)c1	0.39	1.1
CCOC(=O)c1ccc(NC(=O)CSc2nnnn2CCCO)cc1	2.1	-0.71
Cc1oc(-c2ccccc2F)nc1CN1CCC(C(=O)NC2CC2)CC1	0.23	-1.2

Entries of single compounds, quoted from the list. Values in the order: KCNQ2 enhance	KCNQ2 enhance baseline
Cc1oc(-c2ccccc2F)nc1CN1CCC(C(=O)NC2CC2)CC1 is entered as 0.23	-1.2
Cc1noc(C)c1CN1C(=O)c2cccc([N+](=O)[O-])c2C1=O is entered as 2.5	0.23

Carrying on:
SMILES	KCNQ2 enhance	KCNQ2 enhance baseline
Cc1nc2sc(C(=O)Nc3ccccc3Cc3ccccc3)c(C)c2c(=O)[nH]1	0.16	-0.32
CC(C)C[C@H](NC(=O)CCCn1nnc2ccccc2c1=O)C(=O)O	0.06	-0.26
Cc1ccc(NC(=O)Nc2nnc(-c3ccccc3F)s2)cc1	0.25	0.36
COc1ccc(/C(C)=C2/SC(=S)N(CCC(=O)O)C2=O)cc1	0.08	0.42
O=C(O)c1cccc(Nc2nc(-c3cc4ccccc4oc3=O)cs2)c1	2.2	0.5
Cc1nn(Cc2c(Cl)cccc2Cl)c(C)c1NC(=O)CCCn1nc(C)c([N+](=O)[O-])c1C	1.7	-1.9

Source: PubChem BioAssay

The list is partial, so the mix of outcomes need not match the whole.
